rRNA inh HTS: inhibitors of bacterial rRNA selective over humanized ribosomes; GFP signal change (wild-type ribosome), % (no concentration beside the values); actives 1.6% (n = 350,000); E. coli WT GFP vs humanized-ribosome RFP mutants, fluorescence, 24 h; hits give low values; DMSO median 0, no signal -100;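 active means significant combined selectivity score with lowered wild-type GFP, culture density cut under 30%, mutant RFP and density less affected; inactive means any of these conditions unmet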; further: one replicate is shown; some compounds called inactive have numbers as strong as hits
Bfl-1 A1 inh: inhibitors of the anti-apoptotic protein A1, read as caspase activation; MEF A1-2A-BIM cells, Caspase-Glo 3/7 luminescence, 3 h; percent of clofoctol response, vehicle zero; caspase activation, % (concentration not given with the values); actives 0.066% (n = 330,000); AID 2462;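 active means over half of replicate activation scores above 10%, or exactly half above 10 with the replicate mean above 10; inconclusive means replicate mean below 10 yet half the replicates above 10; inactive means over half of replicates below 10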;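 further: wells of about 30 µL received 50 nL stock; many hits fall short of the cut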
Calb FLC: C. albicans growth modulation with fluconazole; actives 0.57% (n = 300,000); C. albicans CaCi-2 (fluconazole-resistant clinical isolate) + fluconazole, Alamar Blue growth, 48 h; growth inhibition, % (no concentration beside the values);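 active means most replicates above 75%; inconclusive means exactly half above 75%; inactive means most below 75%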;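 further: all wells also contain fluconazole at 8 µg/ml as a sub-toxic cotreatment; 0% = median of DMSO wells and 100% = median of geldanamycin control wells; wells of about 8 µL received 7.5 nL stock; the first replicate is given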
Beta2AR agonist: agonists of human beta-2 adrenergic receptor inducing internalization | P07550 | Am2.2-beta2AR cells, FAP receptor internalization, flow cytometry; reference of the scale not given here | response, % (no concentration beside the values) | actives 0.43% (n = 340,000);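 active means response above a set limit, near 3 SD of response in nonfluorescent compounds, cut at about 42% in these data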;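 further: stock transfer was 100 nL into about 11 µL; a reference agonist was the positive control; negative values mostly stem from fluorescent compounds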
Target sequence (P07550 whole entry, looked up): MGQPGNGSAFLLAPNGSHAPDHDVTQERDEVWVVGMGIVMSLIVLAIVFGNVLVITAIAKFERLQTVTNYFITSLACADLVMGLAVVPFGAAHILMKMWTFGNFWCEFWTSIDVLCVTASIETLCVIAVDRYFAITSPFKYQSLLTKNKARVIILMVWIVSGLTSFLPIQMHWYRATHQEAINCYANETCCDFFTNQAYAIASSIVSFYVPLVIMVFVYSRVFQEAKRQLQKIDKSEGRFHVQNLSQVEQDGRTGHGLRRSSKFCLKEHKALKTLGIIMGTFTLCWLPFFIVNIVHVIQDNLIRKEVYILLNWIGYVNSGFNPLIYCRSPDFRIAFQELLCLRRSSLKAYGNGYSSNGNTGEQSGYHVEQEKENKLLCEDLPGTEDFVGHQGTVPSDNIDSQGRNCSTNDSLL
LANA-H2A inh: blocks KSHV LANA binding to histone H2A/H2B; actives 0.6% (n = 320,000); Q9QR71; cell-free LANA-H2A/H2B peptide, fluorescence polarization; inhibition, % (test concentration not listed); in the data active means inhibition mostly above about 10%, no sharp cut-off; inactive means mostly below about 6.7%;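 further: stock transfer was 7.5 nL into about 10 µL; 0% = median of vehicle wells and 100% = median of positive control wells; one replicate is shown; the record names a cut of 25% in any replicate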
T cruzi repl: T. cruzi replication inhibition; T. cruzi beta-gal in NIH3T3, luminescence, 90 h; inhibition, % (concentration not given with the values); actives 1.4% (n = 300,000); AID 1885;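 active means mean inhibition across valid replicates above about 55%, limit read from the data; inconclusive means mean below that limit but half or more replicates reach it; inactive means mean below it, under half of replicates reach it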;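 further: signal also drops with host cell toxicity which is not excluded here; 0% = plate median of DMSO wells and 100% = zero luminescence signal; higher percent means less beta-gal luminescence so fewer parasites; stock transfer was 50 nL into about 50 µL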
ALR H2O2 inh: inhibitors of human sulfhydryl oxidase ALR | P55789 | purified ALR, DTT oxidation, H2O2 HRP-luminol luminescence | inhibition, % (no concentration beside the values) | actives 3.8% (n = 290,000);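 active means mean and each replicate at 75% or more; inconclusive means only one of the two met; inactive means neither met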;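 further: stock transfer was 7.5 nL into about 7.5 µL; 0% = neutral wells and 100% = wells with inactivated enzyme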
Target sequence (P55789 whole entry, looked up): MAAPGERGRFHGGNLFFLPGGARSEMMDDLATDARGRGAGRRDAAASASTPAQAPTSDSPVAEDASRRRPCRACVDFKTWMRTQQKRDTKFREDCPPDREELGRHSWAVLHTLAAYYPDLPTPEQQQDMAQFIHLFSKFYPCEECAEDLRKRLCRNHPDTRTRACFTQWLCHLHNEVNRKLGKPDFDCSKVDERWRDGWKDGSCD
Beta cell apopt: beta cell apoptosis inhibition. INS-1E cytokine-induced death, ATP luminescence, 48 h; percent of positive-control rescue, neutral wells zero. protection from apoptosis, % (no concentration beside the values). actives 0.8% (n = 300,000);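 active means all replicates at 75% or more, or half of them and the mean; inconclusive means half reach 75% but not the mean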;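 further: 0% = cytokine-treated negative control wells and 100% = positive control rescue; higher means more ATP so stronger rescue from cytokine killing; wells of about 40 µL received 100 nL stock; the first replicate is given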
rRNA inh HTS OD600: second read-out of rRNA inh HTS, no call of its own (marks repeat the call); OD600 change, %; measured here: OD600 growth;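 optical density of the mix in the first replicate; 0 = DMSO median and -100 = no signal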
rRNA inh HTS RFP: second read-out of rRNA inh HTS, no call of its own (marks repeat the call); RFP signal change, %; measured here: RFP humanized mutant strains;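 first replicate; 0 = DMSO median and -100 = no signal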
* marks the source's active call; other numbers are inactive results; ? = inconclusive; . = no result given. Some of the compounds tested (hit frequency here may not be typical).

Screens in order: rRNA inh HTS, rRNA inh HTS OD600, rRNA inh HTS RFP, Bfl-1 A1 inh, Calb FLC, Beta2AR agonist, LANA-H2A inh, T cruzi repl, ALR H2O2 inh, Beta cell apopt
> CCCCOc1ccc(/C(O)=C2/C(=O)C(=O)N(CCCOC)C2c2ccncc2)cc1 (stereo not drawn)
    ., ., ., 0.0, 0, 0, -3.0, -19, 0, -2
> Fc1ccc(C(Nc2ccccn2)c2c[nH]c3ccccc23)cc1 (stereo not drawn)
    -4, 7, 21, 0.5, 50, 8, 0.3, -9, 63, -17
> CCOC(=O)c1ccc(N2C(=O)c3n[nH]c(C)c3C2c2ccc(OC)cc2)cc1 (stereo not drawn)
    ., ., ., -0.2, 11, -25, -3.4, 11, -5, 2
> Cc1nnc2sc(SCc3ccccc3Cl)nn2c1=O
    16, -8, -2.3, -5.6, ?, -3, -3.7, -10, 96*, -6
> Cc1ccc(OCC(=O)Nc2c[nH]c(=O)[nH]c2=O)cc1C
    22, 13, 1.5, -0.2, -1, -2, -5.4, -3, -4, 5
> COc1cc(Cl)c(C)cc1NC(=O)c1ccccc1NC(=O)CN1CCOCC1
    4, 12, 2.8, 0.1, 12, 4, -4.9, -2, ., 5
> Cc1cc(/C=C2\Cc3ccccc3C2=O)c(C)n1-c1ccccc1
    5, 6, 3.5, -6.4, 18, -24, 0.8, 0, 1, 2
> C=CCOc1c(Br)cc(/C=N/Nc2ccc(C(=O)O)cc2)cc1OCC
    ., ., ., ?, 10, -23, -1.4, -13, 97*, -2
> CN(CC(=O)Nc1cccc(F)c1)CC(=O)Nc1cccc(S(N)(=O)=O)c1
    -4, 2, -3.4, 1.7, -15, -5, -2.3, -11, -14, -3
> CC(C)(C)NC(=O)C(c1ccco1)N(Cc1ccc(F)cc1)C(=O)c1snc(C(N)=O)c1N (stereo not drawn)
    ., ., ., 0.2, 23, 13, -3.0, 6, 0, -6
> CSCCC(NC(=O)c1ccccc1Br)C(=O)NNC(=O)c1csc(N2CCOCC2)n1 (stereo not drawn)
    -1, 6, 1.4, -0.8, ., -10, -2.9, -8, -7, -5
> CN(C)S(=O)(=O)c1ccc(Cl)c(C(=O)NNC(=O)c2ccc3c(c2)OCO3)c1
    0, 7, -3.0, 0.3, ., -8, -3.8, ., ., 1
> CC1=CC(=C2C(=O)c3ccccc3C2=O)C=C(C)N1Cc1ccco1
    -20, -17, -1.5, -3.4, -19, 18, 0.1, 4, 14, 0
> C=CCNC(=O)/C(C#N)=C/c1cn(-c2ccccc2)nc1-c1cccs1
    ., ., ., 0.2, -4, -13, -1.6, 19, -3, 0
> Clc1ccc(C2=CC(c3ccco3)n3ncnc3N2)cc1 (stereo not drawn)
    ., ., ., 3.1, 10, 2, 6.6, 5, 35, 6

Other structures follow:
Screens in order: rRNA inh HTS, rRNA inh HTS OD600, rRNA inh HTS RFP, Bfl-1 A1 inh, Calb FLC, Beta2AR agonist, LANA-H2A inh, T cruzi repl, ALR H2O2 inh, Beta cell apopt
> Nc1ccc2c(c1)COC2=O
    14, 14, 3.4, 0.1, -8, -2, -1.9, 2, 4, -5
> Cc1cccc(C)c1NC(=O)NN(C(=O)c1ccccc1)C(C)(C)C
    18, 7, -0.6, 0.5, -2, 6, 2.2, -2, 4, 0
> CCC(=O)Nc1ccc(C(=O)c2ccccc2)cc1
    ., ., ., 0.2, 17, -9, 6.5, 14, -4, -3
> CCc1c(C(=O)N2CCOCC2)csc1C
    ., ., ., 0.3, 0, 0, 2.8, 4, 0, 1
> Cn1c(SCc2ccccc2F)nc2ccccc2c1=O
    11, -3, 2.0, 0.5, -2, -3, 0.0, ., -4, 11
> O=C(Nc1ccc(S(=O)(=O)N2CCOCC2)cc1)c1ccc(S(=O)(=O)N2CCOCC2)cc1
    15, 1, -1.4, 0.5, -3, -3, -1.3, -3, -16, -5
> O=C(NCc1ccccc1)C(c1cccnc1)N(C(=O)c1ccccn1)c1ccccc1F (stereo not drawn)
    1, 6, -0.3, 0.1, 2, 9, -2.8, -10, ., 2
> O=C(COc1ccccc1)NCC(c1ccco1)N1CCN(c2ccccc2F)CC1 (stereo not drawn)
    -14, -54, 4.5, 1.0, 3, -20, 2.2, 11, 2, 6
> Cc1nn(-c2ccccc2Cl)c(Cl)c1/C=N/Nc1nc2ccccc2s1
    ., ., ., -8.4, 4, 12, -1.5, 5, -4, 7
> O=C(O)C1Cc2ccccc2CN1S(=O)(=O)/C=C/c1ccccc1 (stereo not drawn)
    1, 6, -1.5, 0.5, 41, 3, 5.2, -9, 6, 7
> CCCOc1ccc(-c2nc(C#N)c(N3CCC(C(N)=O)CC3)o2)cc1
    ., ., ., 0.0, 5, -18, -6.8, 38, -3, 0
> COc1ccccc1-c1cc2nc(C)c(CCC(=O)NC(C)CCc3ccco3)c(C)n2n1 (stereo not drawn)
    -13, -8, 12, 0.9, -1, -3, -2.9, 36, -3, -2
> C/C(CC(=O)Nc1ccc(N(C)C)cc1)=N\NC(=O)c1ccncc1
    2, 3, -0.8, -0.1, -11, 0, -0.5, 14, -2, -1
> COc1ccc(Nc2nc3ccccc3n2C)cc1
    10, 12, 0.3, -5.1, -6, -10, -1.0, -10, 77*, 1
> NC(=O)c1nsc(C(=O)N(c2cccc(F)c2)C(C(=O)NCC2CCCO2)c2ccc3ncccc3c2)c1N (stereo not drawn)
    5, 5, -0.1, 0.2, 10, -13, -0.9, -22, ., -2

The listing continues.
Screens in order: rRNA inh HTS, rRNA inh HTS OD600, rRNA inh HTS RFP, Bfl-1 A1 inh, Calb FLC, Beta2AR agonist, LANA-H2A inh, T cruzi repl, ALR H2O2 inh, Beta cell apopt
> Cc1noc(C)c1S(=O)(=O)N(C)C[C@H]1Oc2c(NC(=O)Nc3ccccc3)cccc2C(=O)N([C@H](C)CO)C[C@@H]1C
    3, 4, 4.2, 0.2, ., -2, 5.4, ., -3, 4
> c1ccc2[nH]c(CSc3nc4ccccc4o3)nc2c1
    ., ., ., -2.6, -15, -8, 0.5, -6, -2, -4
> CCOC(=O)C1CCN(C(=O)COc2ccc([N+](=O)[O-])cc2)CC1
    8, 16, 1.1, -0.4, -15, 4, -3.1, -12, -8, -1
> CCN(CC)C(=S)SC1=CCS(=O)(=O)C1
    -4, 5, -0.1, -0.2, 12, 2, 0.5, -11, 0, -2
> CC(=O)Nc1nnc(CSCc2ccccc2F)s1
    9, -2, 1.5, -0.1, -4, -3, -7.1, ., ., 1
> Cc1ccccc1/C=N/n1c(C2CCCCC2)n[nH]c1=S
    -4, -8, -0.6, -0.6, 32, 2, -1.9, -5, 2, -4
> O=C(N/N=C/C(Br)=C\c1ccccc1)c1n[nH]c2c1CCC2
    ., ., ., -2.2, -7, 36, 2.6, -4, -6, 56
> COc1ccc(CN(CC(=O)NCc2ccc(F)cc2)C(=O)CCC(=O)Nc2cc(C)ccn2)cc1
    0, 7, 2.6, 0.3, 29, 1, -0.4, 8, -7, -6
> CCCCn1ccnc1C(=O)c1cc(S(=O)(=O)N2CCOCC2)ccc1C
    ., ., ., 0.4, 25, 5, 0.8, -38, 4, 5
> CCOC(=O)c1ccc(NC(=S)NCCc2ccc(OC)c(OC)c2)cc1
    -28*, -14*, -3.3*, -0.7, -4, -6, 8.9, 4, ., -3
> O=C(Nc1ccc(S(=O)(=O)NC2=NCCCCC2)cc1)c1ccc(Cl)c([N+](=O)[O-])c1
    15, 4, 5.8, -0.7, ., 11, 7.4, ., 3, -2
> COc1cccc(CNC(=O)c2ccc(NC3=NC4CS(=O)(=O)CC4S3)cc2)c1 (stereo not drawn)
    19, 15, 4.2, 1.1, -5, -1, 6.2, -3, -5, -8
> Cc1c(CNCc2cccs2)c(C(=O)O)c(C)n1Cc1ccccc1
    ., ., ., 2.3, 2, -1, -1.2, 9, -11, -1
> COc1cccc(OC)c1NC(=O)Cc1nn(C)c(=O)c2ccccc12
    ., ., ., -1.2, -3, -2, -2.2, 0, ., 5
> COc1ccccc1-c1nn2c(-c3ccco3)nnc2s1
    -22*, -15*, 1.3*, -1.6, 28, 1, -3.4, 27, 3, 0

Next section.
Screens in order: rRNA inh HTS, rRNA inh HTS OD600, rRNA inh HTS RFP, Bfl-1 A1 inh, Calb FLC, Beta2AR agonist, LANA-H2A inh, T cruzi repl, ALR H2O2 inh, Beta cell apopt
> CCC1(CC)C(=O)NN(c2ccccc2)C1=O
    ., ., ., -0.4, 7, -3, 2.6, -11, 3, 1
> COCCOC(=O)C1=C(C)NC(=O)NC1c1ccc(-c2cc(Cl)ccc2Cl)o1 (stereo not drawn)
    5, -3, 6.7, -0.2, -5, 15, 1.0, 27, 12, 0
> O=C(CN(Cc1ccccc1Cl)C(=O)c1csnn1)NCCc1ccccc1
    -4, -15, 3.0, ?, 18, 4, 0.6, 6, ., 4
> NC(=O)c1ccc[n+](CC(=O)OCCC23CC4CC(CC(C4)C2)C3)c1
    ., ., ., 0.0, -24, -2, -1.6, -4, -4, -3
> COc1ccccc1-c1nc(SCC(=O)NCC2CCCO2)c2c(=O)n(C)c(=O)n(C)c2n1 (stereo not drawn)
    ., ., ., 0.1, -1, ., 5.0, 15, -12, 4
> Nc1ccccc1NC(=O)CCn1c(=S)[nH]c2ccccc2c1=O
    3, 13, 0.5, 0.8, -20, -5, -3.3, -20, 8, 2
> CCn1cc(C(=O)O)c(=O)c2cc(OC)ccc21
    -6, -25, 3.6, 1.3, -2, 7, 0.6, -34, -14, 2
> CCOC(=O)CN(C(=O)CNC(=O)c1ccco1)C(C(=O)NC1CCCCC1)c1cccs1 (stereo not drawn)
    ., ., ., -0.6, 0, -11, -8.2, -5, 11, 3
> O=c1cc(-c2ccccc2Cl)oc2c(Br)ccc(O)c12
    ., ., ., -0.5, -9, -3, -3.0, -15, -3, -12
> CC(C)Sc1ccccc1C(=O)Nc1ccc2c(c1)n(C)c(=O)n2C
    -9, -12, 0.3, 0.3, 21, 1, -2.7, 5, 2, -9
> CN1CCN(C(=S)c2ccc([N+](=O)[O-])cc2)CC1
    17, 12, -5.3, -0.4, -9, -2, 4.1, 11, 7, -3
> CC1(c2ccc3c(c2)OCO3)NC(=O)N(CC(=O)NCCC2=CCCCC2)C1=O (stereo not drawn)
    ., ., ., -0.5, -25, -2, 1.6, 4, -24, -1
> O=[N+]([O-])c1ccc(CNc2cccc(Cl)c2)s1
    -41, -34, -6.9, 0.9, 15, -8, -0.9, -1, -12, -4
> CN(C)CCNC(=O)c1ccc(COc2ccc(Cl)cc2Cl)cc1
    ., ., ., 1.4, 63, 27, -2.0, 48, 5, 2
> COc1ccc(-c2nc(=S)c3c(n2Cc2cccnc2)CC(C)(C)OC3)cc1
    -3, -1, -0.4, -0.1, -2, 2, -10, -9, 0, .
